From PubChem BioAssay
ugtP null kill: compounds lethal to S. aureus RN4220 ugtP deletion mutant; 330,000 compounds, 0.54% hits; OD600 growth, 16 h; some inactives read as strong as hits; growth inhibition, % (no concentration beside the values); AID 1259309;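 active = z-score under -3 and OD600 up to 0.15 on both plates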;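 also: plate controls were untreated wells for no effect and antibiotic for full effect; wells of about 80 µL received 100 nL stock; the first replicate is given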
Mtb hypoxia inh: Mtb hypoxia fluorescent reporter inhibition; AID 1159583; 300,000 compounds, 0.1% hits; fluorescence inhibition, % (no concentration beside the values); M. tuberculosis hypoxia-regulated fluorescent reporter, fluorescence;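 active = 35 to 45% if threefold the growth effect, above 45% if 1.5-fold the growth effect; inactive = the rest, general growth blockers included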;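 also: wells of about 50 µL received 100 nL stock; 0% = vehicle wells and 100% = reference inhibitor wells; whole bacteria with a GFP reporter of the hypoxia response; strong numbers were not always called active; many hits fall short of the cut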
BJeLR lethal: BJeLR cell viability loss. inhibition, % (no concentration beside the values). 300,000 compounds, 0.17% hits. AID 1554. BJeLR (HRASV12) viability, CellTiter-Glo ATP luminescence, 48 h; reference of the scale not given here;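 active = replicate mean above 50%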;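 also: 50 nL library stock added to about 25 µL; numbers are from one replicate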
Autofluor counter: counter-screen for toxin protease inhibitors: compound fluorescence. 360,000 compounds, 3.1% hits. fluorescence intensity (concentration not given with the values). compound autofluorescence counterscreen, microsphere flow cytometry; hits give high values;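 active = at least 3 SD above the mean of all compounds, about 16000 in these data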;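 also: 100 nL of 1 mM stock went into each well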
RN4220 kill: S. aureus RN4220 growth inhibition; OD600, 16 h; 330,000 compounds, 0.33% hits; AID 1259311; inhibition, % (test concentration not listed);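 active = z-score of -3 or lower and OD600 up to 0.18 on both plates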;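 also: plate controls were untreated cells for no effect and reference antibiotic for full effect; stock transfer was 100 nL into about 80 µL; one replicate is shown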
PrP UTR inh: suppresses PrP 5' UTR mRNA reporter expression; 340,000 compounds, 0.35% hits; cell-based PrP 5' UTR mRNA reporter, plate reader; inhibition, % (test concentration not listed);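 active = every replicate at 50% or more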;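 also: 0 = median of the neutral control wells; tested in H4 reporter cells; numbers are from one replicate; inactives centre near -14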
Mtb hypoxia inh growth: further read-out of Mtb hypoxia inh, marked with its call; growth inhibition, %; measured here: M. tuberculosis growth (absorbance);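 0% = vehicle and 100% = reference antibiotic; read after six days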
* hit, by the source's call; x = not tested or not shown.

SMILES	ugtP null kill	Mtb hypoxia inh	Mtb hypoxia inh growth	BJeLR lethal	Autofluor counter	RN4220 kill	PrP UTR inh
Cc1ccc(NC(=O)/C(=C\c2ccc([N+](=O)[O-])cc2)NC(=O)c2ccccc2)cc1	3	x	x	2	4011	2.1	-2
CCCCCC1CC(CC(C)C(=O)Nc2nncs2)C(=O)O1 (configuration not stated)	0	6	15	6	7140	2.6	15
CCCCN(CCCC)c1cn[nH]c(=O)c1Cl	5	-2	0	-13	3121	0.9	-5
COc1ccccc1CNC(=O)c1cc(S(=O)(=O)N2CCN(c3ccccc3)CC2)ccc1Cl	-6	-9	-6	x	3692	0.8	-13
CN(CC(=O)Nc1ccccc1Br)C(=O)C(Cc1ccccc1)NC(=O)c1ccccc1 (configuration not stated)	4	8	14	3	5598	-0.7	-10
O=C(Nc1ccc(Cl)cn1)C1CCCN(c2ncnc3c2nc2n3CCCCC2)C1 (configuration not stated)	-8	-8	23	-1	5400	3.4	-8
CCOc1ccccc1C(=O)NN1C(=O)CCC1=O	2	11	8	2	2521	3.1	4
COc1ccc(CCN(C)C2CCCN(C(=O)CCC(F)(F)F)C2)cc1OC (configuration not stated)	4	13	10	-1	3740	4.8	-40
O=S(=O)(N1CCCCC1)N1CCN(c2cc(Cl)ccc2Cl)CC1	1	15	13	2	4792	5.4	-16
Cc1ccccc1-n1c(N)c(C(=O)Nc2ccc(F)cc2)sc1=S	12	7	-1	-3	3244	-4.3	7
COC(=O)c1[nH]c2ccc(Cl)cc2c1NC(=O)CN1CCc2cc(OC)c(OC)cc2C1	-26	7	16	6	2622	-23	7
Cc1ccc(OCCOc2cccc(C=C3C(=O)NC(=O)NC3=O)c2)cc1	x	x	x	4	4368	x	-44
CC(=O)c1cccc(NC(=O)Cn2nc(-c3ccc(Cl)cc3)ccc2=O)c1	7	3	5	-3	3440	0.8	-45
CCCNC(=O)c1n[nH]c(=O)c2ccccc12	4	x	x	-9	5563	2.8	-13
Cc1cccc(NC(=O)CSc2nnc(NC(=O)CN3CCOCC3)s2)c1	8	x	x	2	2197	4.9	-16
COC(=O)Nc1nnc(-c2ccncc2)s1	-1	2	-6	-14	22886*	2.5	-13
Cc1cc(NCCCn2ccnc2)n2ncc(-c3ccc(Cl)cc3)c2n1	91*	x	x	-4	22244*	30	-44
CC(C)NCc1c(O)c(Br)cc2oc3c(c12)CCCC3	2	4	6	x	4335	1.5	5
COc1cccc(NC(=O)CSc2nnc3c(n2)[nH]c2ccc(C)cc23)c1	6	3	1	-3	3861	1.6	2
O=c1cc(-c2ccccc2)nc(Cc2c(Cl)cccc2Cl)[nH]1	4	-3	8	0	3598	0.4	-13

An excerpt from above, limited to PrP UTR inh and Mtb hypoxia inh.
canonical_smiles	PrP UTR inh	Mtb hypoxia inh
Cc1cc(NCCCn2ccnc2)n2ncc(-c3ccc(Cl)cc3)c2n1	-44	x
CC(C)NCc1c(O)c(Br)cc2oc3c(c12)CCCC3	5	4

Other records
SMILES	ugtP null kill	Mtb hypoxia inh	Mtb hypoxia inh growth	BJeLR lethal	Autofluor counter	RN4220 kill	PrP UTR inh
CC(=NNC(=O)c1cc2ccccc2cc1O)c1ccco1	-8	6	9	x	x	9.2	x
CCOC(=O)CN1C(=O)N[C@@H](CCc2ccccc2)[C@H](C(=O)OC)[C@H]1C	x	x	x	3	3929	x	-27
CCOc1ccc(NC(=O)COc2ccc(-n3cnnn3)cc2)cc1	7	8	7	x	5638	6.6	-6
CCC(C)NC(=O)Cn1nc([N+](=O)[O-])c(Cl)c1C (configuration not stated)	-3	-7	9	x	2844	-8.3	-21
CCNC(=S)NN=Cc1ccc(OCc2ccc(C(=O)OC)cc2)cc1	-13	6	6	x	x	2.7	x
CSc1nc(C)cc(C)c1C#N	-3	x	x	0	2712	1.6	4
CC(=O)Nc1ccc2c(c1)nc1n2CCN(C(C)c2ccccc2)C1 (configuration not stated)	-66	14	6	-9	4696	16	-14
CCOC(=O)Cc1csc(NC(=O)CC(C)(C)CC(=O)O)n1	6	-4	-2	5	x	2.3	-19
Cc1ccc(/C=C/C(=O)Nc2cccc(S(=O)(=O)N3CCOCC3)c2)o1	-15	7	7	6	2703	-4.5	-19
C=CCOc1nc2c(c(=O)n(Cc3ccc(Cl)c(Cl)c3)c(=O)n2C)n1C	-1	x	x	-2	2573	-0.2	-20
O=C(Nc1cccc(-c2nc3cccnc3s2)c1)c1ccco1	-4	17	0	13	10526	9.3	-75
Cc1ccc(C)c(NC(=S)N2CCN(S(C)(=O)=O)CC2)c1	11	-7	-12	x	5461	4.0	-16
CCOc1ccc(CNC(=O)CCCn2ccc3cc(S(=O)(=O)N4CCCC4)ccc32)cc1	-1	-5	4	6	5881	-1.0	-26
CC(SCC(=O)Nc1ccccc1Br)c1nc2ccccc2c(=O)[nH]1 (configuration not stated)	3	4	14	x	3660	4.1	1
c1ccc(C2CCCN(Cc3nc(CC4CC4)no3)CC2)cc1 (configuration not stated)	6	4	6	-4	3859	4.6	-22
CCN(CC)S(=O)(=O)c1ccc(N2CCOCC2)c(NC(=O)C(C)(C)C)c1	7	9	5	20	5172	1.7	-21
Cc1nn(Cc2ccccc2)c2c1C(c1cccnc1)C(C#N)=C(N)O2 (configuration not stated)	-1	4	9	-7	2402	11	-4
CCOC(=O)CSc1nnc(CNC(=O)c2ccc(S(=O)(=O)N3CCCC3)cc2)n1C	6	12	9	3	22679*	4.9	-21
O=C(CNC(=O)C1COc2ccccc2O1)NN=Cc1ccc(O)cc1O (configuration not stated)	5	-3	2	x	x	0.7	x
CC(=O)c1ccc(S(=O)(=O)N2CCN(C(=O)CSc3ccc(F)cc3)CC2)cc1	1	-15	-6	-7	4154	-3.0	-21
COc1cccc(-c2cc(-c3cccnc3)c(C#N)c(N)n2)c1	9	3	4	-1	5444	1.5	8
COc1cc(C(=O)Nc2ccc3c(c2)OCCO3)c(-n2cnnn2)cc1OC	-1	-3	12	3	22353*	-0.6	-3
O=C(O/N=C1/CCCc2occc21)c1ccccc1	x	x	x	-4	2744	x	-29
COc1ccc(NCc2nc3ccccc3n2CCOc2ccccc2)cc1	-14	7	7	-2	8197	16	-25
COc1ccc(-c2nc3cccc(C)n3c2NCc2ccco2)cc1OC	5	x	x	-7	5860	-2.6	-10
N#CC1=C(N)C(C#N)(C#N)[C@H](c2ccsc2)[C@H]2COCC=C12	-5	4	6	0	10674	6.1	x
Cc1cccc(C)c1OCC(=O)NCC1CCCO1 (configuration not stated)	0	21	13	-5	4009	9.2	-9
CC1(C)C2C(Cl)(Cl)C2(C)c2ccccc2N1C=O (configuration not stated)	-1	9	5	-3	6545	8.3	x
COc1cc(/C=N\NC(=O)OC(C)(C)C)ccc1OC(=O)c1ccco1	x	x	x	4	3809	x	-61
COc1cccc(OCC(=O)NNC(=O)c2cccs2)c1	12	x	x	7	4267	-1.1	-20
CC(C)CC1CNC(=O)C(=O)N1CC(C)NC(=O)Cc1ccccc1 (configuration not stated)	2	-1	-5	x	x	1.8	x
Cn1c(CCNC(=O)c2cccs2)nnc1SCC(=O)Nc1nc(-c2ccccc2)cs1	-19	-4	3	16	15609	-2.3	-10
O=C(O)c1ccc(OS(=O)(=O)c2ccc(Cl)s2)cc1	-10	1	3	x	5834	6.1	-15
COC(=O)c1cccc(C23CC4(C2)C(CN(Cc2cccnc2)C4c2ccccc2)C3c2ccccc2)c1 (configuration not stated)	5	6	5	x	x	-0.7	x
Cc1noc(C)c1COC(=O)c1ccc(S(=O)(=O)N2CCCCC2)cc1	3	4	7	1	2162	0.5	-22
Cc1ccc(CNC(=O)Cn2cnc3cc([N+](=O)[O-])ccc3c2=O)cc1	4	-2	1	-7	2282	-4.3	-2
CCn1nnnc1SCC(=O)Nc1nnc(C(C)C)s1	-2	-4	11	1	6036	2.8	-6
CCN(CC(=O)Nc1ccc(NC(C)=O)cc1)C(=O)/C=C/c1cn(-c2ccccc2)nc1-c1cccs1	-7	-1	6	-7	x	7.2	-28
Cc1ccc(-c2csc(NC(=O)C3=NN(C4CCS(=O)(=O)C4)C(=O)CC3)n2)cc1 (configuration not stated)	6	4	7	-6	5114	3.6	-32
Cc1ccccc1NC(=S)N(Cc1ccccc1)Cc1cccs1	3	14	3	-3	3287	-3.9	-19
O=C(CCCn1c(SCc2cccc(F)c2)nc2ccccc2c1=O)NCC1CCCO1 (configuration not stated)	3	-7	-1	3	3445	-0.9	-8
NC(=O)c1ccc(N2CCNC(=O)C2)c([N+](=O)[O-])c1	2	-5	-3	-8	6567	-0.3	-2
COc1cc(OC)cc(C(=O)N[C@H](C(=O)OCC(=O)c2c[nH]c3ccccc23)C(C)C)c1	-4	5	3	x	3565	1.8	-15
Cc1ccc(NC2CCCN(C(=O)c3cn(C)c4ccccc34)C2)cc1C (configuration not stated)	1	10	-28	1	5978	2.3	-6
COc1ccc(OC)c2sc(N(CCN(C)C)C(=O)c3ccc4ccccc4c3)nc12	x	x	x	4	5986	x	-4
Cc1c(NC(=S)N/C(=N/S(=O)(=O)c2ccccc2)c2ccccc2)c(=O)n(-c2ccccc2)n1C	0	-1	-3	-9	6321	2.6	-14
O=C(NNS(=O)(=O)c1ccccc1)c1cccc([N+](=O)[O-])c1	11	10	7	-2	3130	3.9	-26
CC(=NCCCn1ccnc1)c1c(O)n(C2CCCCC2)c(=O)[nH]c1=O	20	2	-5	-11	5937	3.7	-6
O=C(CCn1nc(-c2ccc(Cl)cc2)c2ccccc2c1=O)Nc1cccnc1	-5	1	6	-1	4042	6.9	-13
CS(=O)(=O)N1CCCC(C(=O)NCc2ccc(F)cc2)C1 (configuration not stated)	0	-4	-11	0	4896	-0.6	-20
(list continues)
SMILES	ugtP null kill	Mtb hypoxia inh	Mtb hypoxia inh growth	BJeLR lethal	Autofluor counter	RN4220 kill	PrP UTR inh
O=C(c1ccc2c(c1)OCO2)C1CCCN(Cc2ccccn2)C1 (configuration not stated)	6	-3	-5	-5	4675	2.0	-17
O=C(CSc1ccc(-c2cccs2)nn1)NCCc1ccccc1	4	13	0	1	5707	-4.0	-18
CCOc1ccccc1NC(=O)CSc1nc2nc(-c3cccs3)cc(C(F)(F)F)c2c(=O)[nH]1	41	-6	-12	-1	3413	22	-15
CC(=O)N(C)c1nc(N)n(-c2ccccc2)n1	4	3	7	0	2447	1.7	-19
O=C(NCC1CCCO1)Nc1ccccc1 (configuration not stated)	2	x	x	-1	4109	4.3	-4
Cc1c(Br)c([N+](=O)[O-])nn1CC(=O)NCCc1ccc(Cl)cc1	3	10	-2	0	5147	3.7	-21
CCOC(=O)/C(=C\c1cccc(O)c1)c1nc2sc(C)c(C)c2c(=O)[nH]1	10	1	0	-13	2394	12	-5
NS(=O)(=O)c1cccc(NC(=O)Nc2ccccc2)c1	4	13	8	0	4381	2.5	-16
CCC1Nc2ccccc2-c2nnc(SC)nc2O1 (configuration not stated)	x	x	x	-1	2570	x	-39
COCCNC(=O)C1CCN(S(=O)(=O)c2ccc3c(c2)OCCO3)CC1	9	6	0	1	4422	2.4	-36

Three entries picked at random from the list so far:
SMILES	ugtP null kill	Mtb hypoxia inh	Mtb hypoxia inh growth	BJeLR lethal	Autofluor counter	RN4220 kill	PrP UTR inh
CCOC(=O)/C(=C\c1cccc(O)c1)c1nc2sc(C)c(C)c2c(=O)[nH]1	10	1	0	-13	2394	12	-5
COCCNC(=O)C1CCN(S(=O)(=O)c2ccc3c(c2)OCCO3)CC1	9	6	0	1	4422	2.4	-36
O=C(c1ccc2c(c1)OCO2)C1CCCN(Cc2ccccn2)C1 (configuration not stated)	6	-3	-5	-5	4675	2.0	-17

Record cards, from the list above. Values in the order: ugtP null kill	Mtb hypoxia inh	Mtb hypoxia inh growth	BJeLR lethal	Autofluor counter	RN4220 kill	PrP UTR inh
NS(=O)(=O)c1cccc(NC(=O)Nc2ccccc2)c1 is listed as 4	13	8	0	4381	2.5	-16
CC(=O)N(C)c1nc(N)n(-c2ccccc2)n1 is listed as 4	3	7	0	2447	1.7	-19

(cont.)
SMILES	ugtP null kill	Mtb hypoxia inh	Mtb hypoxia inh growth	BJeLR lethal	Autofluor counter	RN4220 kill	PrP UTR inh
O=C(Cc1cccc(C(F)(F)F)c1)Nc1cc(S(=O)(=O)N2CCOCC2)ccc1N1CCCC1	1	10	2	x	8128	3.1	-42
CC(/C=N/NC(=O)c1ccc2nc(C)[nH]c2c1)=C\c1ccccc1	x	x	x	6	2616	x	-21
CC(=O)n1cc([C@H]2C=C(C(=O)NCc3ccccc3)O[C@@H](OCCCCO)C2)c2ccccc21	x	x	x	-6	4620	x	-22
CCOC(=O)C(=NC(C)C)NNc1cc(Cl)ccc1Cl	-4	-1	9	-4	2617	8.3	-17
